# GLA inh pH 4.5 = alpha-galactosidase A (human) inhibition, pH 4.5. P06280. purified enzyme, 4-MU-alpha-Gal fluorescence, pH 4.5. activity change, negative = inhibition, % at 105 µM. 230,000 tested, under 10 active. AID 1467; inconclusive = small, poorly fitted or top-dose-only inhibition, or a rising curve; inactive = flat fitted curve, though single readings scatter; no compound was filed as active;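 further: 0% = full activity with enzyme and -100% = basal without enzyme; dose as in the result columns while the protocol names 77 µM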
# Rango complex inh = prevents formation of the Rango-importin beta complex; Q14974; Rango CFP/YFP FRET sensor + importin beta, 45 min; Potency, µM (titrated, usually from 92.2 µM), without a hit: at the highest dose inhibition of complex formation; 0.031% of 340,000 active; active = rising FRET ratio curve, often small or poorly fitted; inconclusive = mostly compound fluorescence or quenching in the first reads; inactive = flat curves in all reads;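 further: potency means the concentration at half of the fitted maximal effect; 0% = DMSO wells and 100% = buffer wells lacking importin beta; nearly all actives have a fitted effect of over 15% in size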
# Target sequence (Q14974 whole entry, looked up): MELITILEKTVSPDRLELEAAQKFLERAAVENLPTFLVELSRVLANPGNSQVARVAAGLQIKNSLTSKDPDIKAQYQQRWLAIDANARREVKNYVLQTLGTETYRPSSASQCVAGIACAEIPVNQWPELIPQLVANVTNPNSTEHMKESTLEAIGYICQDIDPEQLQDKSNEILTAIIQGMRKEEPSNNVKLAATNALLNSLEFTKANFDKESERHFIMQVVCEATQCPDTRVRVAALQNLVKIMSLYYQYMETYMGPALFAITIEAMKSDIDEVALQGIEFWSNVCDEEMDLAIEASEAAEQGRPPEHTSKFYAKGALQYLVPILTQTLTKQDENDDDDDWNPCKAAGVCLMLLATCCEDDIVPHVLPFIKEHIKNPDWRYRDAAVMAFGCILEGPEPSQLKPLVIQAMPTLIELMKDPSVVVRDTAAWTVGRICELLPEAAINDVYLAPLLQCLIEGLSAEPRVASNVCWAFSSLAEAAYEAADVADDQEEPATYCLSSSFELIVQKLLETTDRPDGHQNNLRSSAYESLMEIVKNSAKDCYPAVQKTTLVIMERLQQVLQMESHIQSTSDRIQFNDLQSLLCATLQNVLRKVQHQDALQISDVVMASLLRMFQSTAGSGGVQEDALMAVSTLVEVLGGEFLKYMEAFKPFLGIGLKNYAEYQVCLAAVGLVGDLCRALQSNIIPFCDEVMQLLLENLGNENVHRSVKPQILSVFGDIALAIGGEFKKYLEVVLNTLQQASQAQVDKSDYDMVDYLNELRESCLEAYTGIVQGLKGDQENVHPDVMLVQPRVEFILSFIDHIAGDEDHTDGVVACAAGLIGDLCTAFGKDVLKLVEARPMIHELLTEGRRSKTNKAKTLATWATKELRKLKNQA
#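 Inhibition scored from the CFP 486 nm/YFP 530 nm FRET ratio 45 min after adding 0.125 microM importin beta to 50 nM Rango biosensor preincubated 5 min with compound (room temperature, PBS with DTT, Tween-20, BSA). No-importin wells as positive control.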
# Rango release inh = prevents RanGTP from dissociating the Rango-importin beta complex | O95149+P62826 | Biochemical FRET Rango-importin beta, RanGTP-induced dissociation | Potency, µM (series often up to 46.1 µM), inactives show at the top dose activity change, negative = inhibition | 0.071% of 340,000 active | AID 540253; active means falling FRET ratio curve, often poorly fitted, with flat reads before Ran was added; inconclusive means other falling curves, or compound fluorescence or quenching; inactive means flat or rising ratio curve;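 further: potency means the concentration at half of the fitted maximal effect; % of control where 0% means no effect; nearly all actives have a fitted effect of over 45% in size; -100% = wells without RanGTP and RCC1; the record marks most hits as doubtful in a second field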
#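 Two FRET readings bracket the reaction: one 5 min after compound meets Rango–importin beta, another 45 min after RanGTP-RCC1 (0.6 uM Ran, 0.2 uM RCC1, 2 mM GTP) is added. Only the second defines inhibition.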
# miR-21 FLuc = raises the signal of a miR-21 reporter; HeLa miR-21 FLuc reporter, luciferase, 48 h; Potency, µM (series often up to 38.3 µM), inactives show at the highest dose reporter change, positive = more light; 340,000 tested, under 10 active; active = well fitted rising curve with a large enough effect; inconclusive = small, poorly fitted or top-dose-only effect; inactive = no such curve, though single readings can be large or run the other way;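 further: % of control where 0% means no effect; miR-21 action dims this reporter so a rising signal means less miR-21 action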
#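 Luminescence from a firefly luciferase reporter carrying a miR-21 binding site downstream, stably expressed under a CMV promoter in HeLa cells that make miR-21 endogenously, reports miRNA modulation after 48 h compound exposure up to approximately 40uM final.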
# Starred values were filed as active, the others as inactive; ? = inconclusive; . = no result given; & = joins results of further samples. The list is partial; rates above refer to the full screens.
compound,GLA inh pH 4.5,Rango complex inh,Rango release inh,miR-21 FLuc
O=C1N[C@H](Cc2ccccc2)COC(=O)[C@H](Cc2ccc(F)cc2)CC/C=C/C[C@@H]1CC(=O)N(CCO)Cc1ccccc1,.,1.7%,25%,.
COc1ccc(N2CCN(CCCn3c(=S)[nH]c4ncccc4c3=O)CC2)cc1,4,3.2%,16%,-1%
O=C(OCc1ccc(F)cc1)c1cc2ccccc2cc1O,.,8.8%,-15%,2%
COc1ccc(N2CCN(CCNC(=O)Nc3ccc(Cl)cc3)CC2)cc1,-8,5.4%,0%,3%
Cc1cc(-c2ccccc2)nc(Oc2ccc(C(C)(C)C)cc2)c1S(C)(=O)=O,1,-3.3%,1%,7%
C[C@H](NC(=O)c1ccco1)C(=O)NCc1cccs1,.,-1.7%,1%,.
O=C(NCc1ccccc1Cl)C1CCN(S(=O)(=O)c2cccc3nonc23)CC1,.,6.7%,-6%,-3%
COc1ccc(C(C)=O)cc1COC(=O)c1ccc2ccccc2n1,-4,-1.0%,-7%,4%
CC(C)OC(=O)c1ccccc1C(=O)c1ccc(N)c([N+](=O)[O-])c1,-20,2.2%,-3%,-8%
CCC(C)NC(=O)N[C@@H](CCSC)C(=O)OC (some centres not stated),-3,6.0%,?,-1%

# Next part.
compound,GLA inh pH 4.5,Rango complex inh,Rango release inh,miR-21 FLuc
Cc1ccccc1Nc1c(-c2ccc(N3CCOCC3)cc2)nc2cnccn12,-6,?,?,-68%
COc1ccc(N2C(=O)CN=C2Nc2nc(C)cc(C)n2)cc1,1,?,0%,-4%
C=CCN1C(=O)NC2(CCCCC2)C1=O,1,3.6%,4%,0%
CCCCCOC(=O)C1[C@H]2C(=O)N(Cc3cccs3)C[C@]23C=C[C@H]1O3 (some centres not stated),-2,0.2%,6%,-1%
NS(=O)(=O)c1ccc(NC(=O)CSC2CCCCC2)cc1,7,-1.9%,6%,-34%
O=C(NCCc1ccc(Cl)cc1)c1ncn[nH]1,8,3.8%,-2%,-10%
CCS(=O)(=O)N1Cc2ccccc2CC1C(=O)Nc1nnc(SCc2ccc(C#N)cc2)s1 (configuration not stated),-6,?,14%,-10%
Cc1cccc(NC(=S)NC2CCCC2)n1,0,2.3%,-6%,11%
COC(=O)COc1cccc2c(=O)n(CC(=O)NCc3ccccc3)ccc12,0,-0.4%,0%,23%
Cc1cc(N2C(=O)C3C4CCC(C4)C3C2=O)no1 (configuration not stated),-5,3.4%,?,1%

# Full records, looked up by structure. Values in the order: GLA inh pH 4.5	Rango complex inh	Rango release inh	miR-21 FLuc
# COc1ccc(C(C)=O)cc1COC(=O)c1ccc2ccccc2n1 in the list: -4	-1.0%	-7%	4%
# Cc1cc(N2C(=O)C3C4CCC(C4)C3C2=O)no1 (configuration not stated) in the list: -5	3.4%	?	1%
# COc1ccc(N2C(=O)CN=C2Nc2nc(C)cc(C)n2)cc1 in the list: 1	?	0%	-4%
# Cc1cc(-c2ccccc2)nc(Oc2ccc(C(C)(C)C)cc2)c1S(C)(=O)=O in the list: 1	-3.3%	1%	7%

# (list continues)
compound,GLA inh pH 4.5,Rango complex inh,Rango release inh,miR-21 FLuc
N#Cc1c(Sc2ncc(C(F)(F)F)cc2Cl)nsc1C/C=N\OCc1c(F)cccc1Cl,-6,?,-29%,-3%
COc1ccc(NC(=O)CC2C(=O)N(c3ccc(OC)cc3)C(=O)N2CCc2cccs2)cc1 (configuration not stated),-16,3.7%,-12%,-5%
Cc1oc(C(=O)O)cc1COc1ccccc1Cl,-6,1.9%,1%,-17%
O=C(Sc1ccc(Cl)cc1)c1ccccn1,.,-0.1%,10%,.
COc1ccc(CCN2CN(S(=O)(=O)c3ccccc3)c3nc4ccccc4nc32)cc1OC,6,2.2%,-9%,-9%
Cc1cccc(C)c1NC(=O)CSc1nnc(-c2ccccc2)n1Cc1ccc2c(c1)OCO2,6,0.6%,-6%,1%
CCOC(=O)CCC(NC(=O)c1ccc(NCN2C(=O)c3ccccc3C2=O)cc1)C(=O)OCC (configuration not stated),1,0.3%,8%,-3%
Cc1ccsc1/C=N/NC(=O)CNC(=O)c1ccc(S(=O)(=O)N2CCOCC2)cc1,2,-3.2%,0%,5%
Cc1ccccc1CNC(=O)CCNS(=O)(=O)c1ccc(OC(F)(F)F)cc1,.,-0.3%,?,.
CS(=O)(=O)N1CCC(C(=O)Nc2ccc(OCc3ccccc3)cc2)CC1,7,6.5%,7%,2%

# Additional entries follow.
compound,GLA inh pH 4.5,Rango complex inh,Rango release inh,miR-21 FLuc
Cc1cc(C)c(-c2c(N)cc(Br)cc2Br)c(N)c1,.,-0.1%,21%,.
COc1ccc(C(=O)Nc2ccc(Nc3ccccc3)cc2)cc1[N+](=O)[O-],.,0.1%,8%,?
CCOC(=O)CC1C(=O)NCCN1C(=O)c1c(F)cccc1F (configuration not stated),-8,1.5%,-3%,0%
CCOC(=O)CC1CCCCN1Cc1cn[nH]c1-c1ccc(F)cc1F (configuration not stated),4,0.8%,-21%,1%
COc1cccc(-n2c(-c3ccccc3)c[nH]c2=S)c1,.,1.3%,12%,11%
CO/N=C/C(C#N)=C/c1cc(C(=O)c2ccccc2)cn1C,-9,-2.6%,-8%,-2%
CCN(CC(=O)Nc1ccc(NC(C)=O)cc1)C(=O)c1ccc(S(=O)(=O)N2CCCC2)cc1,.,-2.3%,0%,.
Fc1ccc(N=c2ssnc2Cl)c(F)c1,3,?,-7%,-2%
CCN(C(=O)c1cccc(Br)c1)C1CCS(=O)(=O)C1 (configuration not stated),.,-0.8%,-5%,.
C#CCNC(=O)C1=C[C@H](c2ccc3c(c2)OCO3)C[C@H](OCc2ccc(CO)cc2)O1,5,-1.8%,16%,-24%

# Continuation.
compound,GLA inh pH 4.5,Rango complex inh,Rango release inh,miR-21 FLuc
CC(C)c1ccccc1NC(=S)NCC1(N(C)C)CCCCC1,.,1.9%,2%,-1%
O=C(NCCC1CCCCN1S(=O)(=O)c1ccc(F)cc1)C(=O)Nc1ccccc1F (configuration not stated),.,-3.3%,18%,.
COc1ccc(CNC(=O)CN(Cc2ccc(C)cc2)C(=O)c2csnn2)cc1,.,0.0%,-10%,0%
CC1(C)NC(=O)N(CCCCOc2ccc(Cl)cc2C=O)C1=O,-5,-3.2%,-1%,10%
Cc1ccc(/C=N/NC(=O)CSc2nc3ccccc3o2)cc1,1,-8.9%,-1%,-63%
O=C(CCn1cnnn1)Nc1ccccc1,2,6.3%,10%,-10%&-7%
Nc1ncnc2c1cnn2C1CC(O)C(CO)O1 (configuration not stated),.,?,0%,.
Cn1c(=O)c2c(nc(Br)n2CCCc2ccccc2)n(C)c1=O,4,0.1%,-6%,2%
CCOC(=O)C1CCCN(C(=O)c2ccccc2NS(=O)(=O)c2ccc(F)cc2)C1 (configuration not stated),.,0.6%,1%,.
O=C(COCc1nc2ccccc2c(=O)[nH]1)NC1CCCC1,-10,-3.6%,-9%,-9%

# The list continues.
compound,GLA inh pH 4.5,Rango complex inh,Rango release inh,miR-21 FLuc
CN(C(=S)NC1CCCCC1)C1(c2ccccc2Cl)CCCCC1=O (configuration not stated),3,-1.3%,7%,-1%
CC1CC1C(=O)OCC(=O)Nc1ccc(Cl)cn1 (configuration not stated),.,-3.2%,2%,.
O=C(COC(=O)c1cc2ccccc2cc1O)NC1CCCCC1,.,-2.2%,5%,.
Cc1c(C(=O)NCCCN2CCOCC2)sc2nc(-c3ccccc3)cn12,3,.,.,-18%
CN1CC=C2C(C#N)=C(N)C(C#N)(C#N)[C@H](c3cccs3)[C@H]2C1,0,?,?,-8%
O=C(NCCCn1ccnc1)c1ccc2ccccc2c1,.,-0.7%,-29%,-5%
S=c1[nH]nc(-c2cccnc2)n1/N=C/c1ccc(Br)s1,-14,-1.6%,6%,-2%
Cc1nnc(SCC(=O)c2cc(C)n(-c3ccc4c(c3)OCO4)c2C)s1,0,-0.5%,1%,-20%
O=S(=O)(N/N=C/c1ccc(N2CCOCC2)cc1)c1ccccc1,-2,-0.4%,-4%,-10%
COC(CNC(=O)CNC(=S)N(CCCN1CCOCC1)Cc1cccs1)OC,6,0.3%,-5%,0%

# (continued)
compound,GLA inh pH 4.5,Rango complex inh,Rango release inh,miR-21 FLuc
O=C(COc1ccccc1-c1ccccc1)N/N=C/c1ccccn1,-7,2.4%,11%,21%
CCCCN(C(=O)COC(=O)c1ccc(C=O)cc1)c1c(N)n(CCC)c(=O)[nH]c1=O,.,?,-7%,.
COc1ccc(CNC(=O)COC(=O)c2ccc(C)c(S(=O)(=O)N3CCOCC3)c2)cc1,.,-0.6%,23%,.
COc1ccccc1C(=O)NC(=S)N1CCCc2ccccc21,-5,-0.5%,-25%,-44%
CC(=O)Cc1nsc(NC(=O)C2Cc3ccccc3C(=O)O2)n1 (configuration not stated),-1,-2.1%,9%,-5%
Cc1ccc(NC(=O)CCN2CC(C)OC(C)C2)cc1 (configuration not stated),.,-4.9%,-9%,-2%
CCCc1ccc(OCC(O)CN2CCN(c3ccccn3)CC2)cc1 (configuration not stated),.,6.8%,15%,-5%
COc1ccc(C)cc1N(CC(=O)N1CCCCCC1)S(=O)(=O)c1ccc(C)cc1,.,1.6%,5%,-1%
Cc1ccc(C2(c3noc(CN(C)Cc4cccnc4)n3)CCCC2)cc1,1,4.5%,-23%,0%
CCOc1ccc(N(CC(=O)NC2CCCCC2)C(=O)CNC(=O)c2cccs2)cc1,.,0.4%,3%,-1%

# Single values from the list:
# Rango release inh with Cc1oc(C(=O)O)cc1COc1ccccc1Cl is entered as 1%
# Rango complex inh with C=CCN1C(=O)NC2(CCCCC2)C1=O is entered as 3.6%

# Random excerpt: 2 compounds from above.
compound,GLA inh pH 4.5,Rango complex inh,Rango release inh,miR-21 FLuc
NS(=O)(=O)c1ccc(NC(=O)CSC2CCCCC2)cc1,7,-1.9%,6%,-34%
O=C1N[C@H](Cc2ccccc2)COC(=O)[C@H](Cc2ccc(F)cc2)CC/C=C/C[C@@H]1CC(=O)N(CCO)Cc1ccccc1,.,1.7%,25%,.

# (listing goes on)
compound,GLA inh pH 4.5,Rango complex inh,Rango release inh,miR-21 FLuc
CN1C(CCl)Nc2cc(Cl)c(S(N)(=O)=O)cc2S1(=O)=O (configuration not stated),.,0.1%,23%,.
COC(=O)COc1cccc2c(=O)n(CC(=O)N3CCCc4ccccc43)ccc12,6,-1.5%,1%,-3%
Clc1ccc(-c2nnc(CSc3nnc(-c4cccs4)n3Cc3ccccc3)o2)cc1,-3,-2.6%,16%,20%
CCC(C)c1ccccc1N1CC(C(=O)NCCC2=CCCCC2)CC1=O (configuration not stated),.,-2.4%,-3%,.
COc1ccc(NC(=O)c2nc[nH]c2C(=O)N[C@H](C)c2ccccc2)cc1,-9,-2.9%,7%,-4%
O=C(O)C1C2C=CC(C2)C1C(=O)NCc1ccoc1 (configuration not stated),5,-0.2%,-8%,1%
Cc1cc(Br)ccc1Nc1nc(N)nc(N)c1N=O,.,0.0%,-13%,.
COc1ccc(NC(=O)c2oc3ccccc3c2NC(=O)C2CC2)cc1OC,.,0.8%,7%,3%
COc1ccc(/C(O)=C2/C(=O)C(=O)N(c3ncccn3)C2c2ccc(C(C)(C)C)cc2)cc1 (configuration not stated),-5,.,.,3%
Cc1ccc(-n2c(Cc3cccn3C)nnc2SCC(=O)NC2CCCCC2)cc1,7,-5.0%,-3%,0%

# Next structures follow:
compound,GLA inh pH 4.5,Rango complex inh,Rango release inh,miR-21 FLuc
COc1ccc(N2CCN(C(=O)C3CC(O)CN3S(=O)(=O)c3ccc([N+](=O)[O-])cc3)CC2)cc1 (configuration not stated),-2,0.9%,-5%,0%
CC(C)(C)c1ccc(C(=O)NNC(=S)NCC2CCCO2)cc1 (configuration not stated),1,0.0%,-14%,-38%
Cc1ccc(C)c(OCCC(=O)OCC(=O)Nc2ccc(C)c(S(=O)(=O)N3CCCCC3)c2)c1,.,-1.5%,1%,.
Cc1ccc(-n2nc3c(=O)n(CC(=O)c4ccc(F)cc4)nc(C)c3c2C)cc1,-1,-0.5%,4%,-15%
